# STK33 inh = inhibitors of purified STK33 kinase, primary screen, biochemical, ADP-Glo luminescence, homogeneous, cell-free; Serine/threonine-protein kinase 33 (Homo sapiens), Q9BYT3; MBP phosphorylation; inhibition, % at 10 µM; 320,000 compounds, 0.073% hits;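 active = inhibition at or above 25%, using the most active replicate where run in duplicate; inactive = inhibition below 25%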
# Target sequence (Q9BYT3 whole entry, looked up): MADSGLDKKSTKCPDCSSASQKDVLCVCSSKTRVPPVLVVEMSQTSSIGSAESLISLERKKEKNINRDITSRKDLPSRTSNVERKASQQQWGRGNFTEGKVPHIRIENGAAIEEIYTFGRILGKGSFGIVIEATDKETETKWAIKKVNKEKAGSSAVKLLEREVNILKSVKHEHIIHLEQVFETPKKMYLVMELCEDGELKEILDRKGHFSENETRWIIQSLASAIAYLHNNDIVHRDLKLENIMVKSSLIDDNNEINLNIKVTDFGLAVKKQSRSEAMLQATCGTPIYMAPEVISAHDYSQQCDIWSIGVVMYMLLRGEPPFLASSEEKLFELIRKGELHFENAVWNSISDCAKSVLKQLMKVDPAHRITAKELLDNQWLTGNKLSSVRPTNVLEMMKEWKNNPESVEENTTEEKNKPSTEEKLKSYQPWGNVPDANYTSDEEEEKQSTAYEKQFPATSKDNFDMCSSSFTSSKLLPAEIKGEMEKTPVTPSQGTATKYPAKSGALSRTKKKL
# * marks the source's active call; other numbers are inactive results; & = joins results of further samples.
canonical_smiles,STK33 inh
Cc1ccc(-c2n[nH]c(=S)n2/N=C/c2sccc2C)cc1,0.5
Cc1cc(C)c(C(=O)COC(=O)Cn2cnnn2)cc1C,0.2
CCOC(=O)C1(CCOc2ccccc2)CCN(Cc2cc(OC)c3c(c2)OCO3)CC1,-0.3
O=C1N(Cc2cccnc2)C[C@@H]2C[C@@H](c3ccc(-c4ccccc4)cc3)N3CCC[C@@]123,0.0
CCCn1c(SCC(=O)Nc2cc(C)on2)nc2c1c(=O)n(C)c(=O)n2C,-1.1
O=C(COc1ccc(F)cc1)N(CC1=CCS(=O)(=O)C1)c1ccccc1,-2.2
Cc1cccc(CC(=O)N2CCC(N3CCC(C(=O)N4CCOCC4)CC3)CC2)c1,-2.2
COC(=O)C(NC(=O)CN1C(=O)c2ccccc2C1=O)c1ccc(O)c(OC)c1 (configuration not stated),-1.2
O=C(N/N=C/c1ccc2c(c1)OCCO2)c1ccncc1,-1.6
COc1ccc(CNS(=O)(=O)c2c(C(=O)N3CCCCCC3)c(C)n(C)c2C)cc1,-1.9
COC(=O)c1cc(S(=O)(=O)Nc2ccc(C)c(F)c2)c[nH]1,2.6
CC1C(=O)N2CCCc3cc(NC(=O)COc4ccccc4)cc1c32 (configuration not stated),0.8

# Following part
canonical_smiles,STK33 inh
COc1ccc(-c2c3c(=O)n(C)c(=O)n(C)c3cn2NC(C)=O)cc1,-0.5
Fc1ccccc1C1c2cccn2CCN1C(=S)Nc1cccc(Br)c1 (configuration not stated),0.0
CCOC(=O)N1CCN(C(=O)c2cc3ccc(OC)cc3[nH]2)CC1,0.6
COC(=O)Cc1nnc(NC(=O)c2ccccc2)s1,-1.5
COC(=O)N1N=C(c2ccccc2)CC1(O)C(F)(F)F (configuration not stated),-0.5
CCOC(=O)c1cnc(-c2ccc(C(F)(F)F)cn2)[nH]c1=O,0.0
Cc1cc(NS(=O)(=O)c2ccc(NC(=O)Nc3ccccc3)cc2)no1,-1.1
O=C(O)c1ccc(CSc2n[nH]c(-c3ccco3)n2)cc1,-0.4
CS(=O)(=O)N1CCC(C(=O)Nc2cc(Cl)ccc2Cl)CC1,-1.5
Nc1cccc(-n2cccc2)c1,-0.2
O=C(Nc1cccc(O)c1)c1ccc2c(c1)C(=O)N(Cc1ccco1)C2=O,1.0
O=C(NCc1nnc(SCC(=O)N2CCCC2)o1)c1ccc(F)cc1,-3.2

# Taken from above.
# `Fc1ccccc1C1c2cccn2CCN1C(=S)Nc1cccc(Br)c1` (configuration not stated) | STK33 inh = 0.0
# `CCOC(=O)c1cnc(-c2ccc(C(F)(F)F)cn2)[nH]c1=O` | STK33 inh = 0.0

# A stretch from further up:
canonical_smiles,STK33 inh
Cc1ccc(-c2n[nH]c(=S)n2/N=C/c2sccc2C)cc1,0.5
Cc1cc(C)c(C(=O)COC(=O)Cn2cnnn2)cc1C,0.2
CCOC(=O)C1(CCOc2ccccc2)CCN(Cc2cc(OC)c3c(c2)OCO3)CC1,-0.3
O=C1N(Cc2cccnc2)C[C@@H]2C[C@@H](c3ccc(-c4ccccc4)cc3)N3CCC[C@@]123,0.0
CCCn1c(SCC(=O)Nc2cc(C)on2)nc2c1c(=O)n(C)c(=O)n2C,-1.1

# New compounds follow
canonical_smiles,STK33 inh
C/C(=N/NC(=O)c1ccc(Br)s1)c1ccncc1,8.8
CCCc1cc(C(=O)NNC(=S)NC(C)c2ccccc2)cs1 (configuration not stated),-1.7
Cc1cccc(OCC(=O)NC(=S)N2CCCc3ccccc32)c1,-0.6
Cc1ccc(CSc2nc3ncccc3[nH]2)cc1,-0.7
CC1C(c2ccccc2)N(C)C(c2ccccc2)CC1(O)c1ccccc1 (configuration not stated),-2.2
CC(=O)N(Cc1nc2sc(C)c(C)c2c(=O)[nH]1)C1CCCC1,-0.1
O=C1OCC2=C1C(c1ccccc1)CC(=O)N2c1ccccc1 (configuration not stated),0.0
CCn1c(SCC(=O)Nc2ccc(Cl)cc2)nc2nc3c(cc2c1=O)CCCC3,-1.0
Cn1cc([N+](=O)[O-])c(C(=O)N2CCCCCC2)n1,-1.1
O=C(NCCO)/C(=C\c1ccc2c(c1)OCO2)NC(=O)c1ccc(Br)cc1,-0.6
CN1C(=O)[C@H]2[C@@H](C3CC3)N3C(=O)CN(Cc4ccc(-c5ccccc5)cc4)C(=O)[C@@]3(C)[C@H]2C1=O,-2.5
CCn1c(SCC(=O)Nc2ccc(F)cc2)nc2ccccc2c1=O,-1.3

# Next section.
canonical_smiles,STK33 inh
COc1ccccc1N1CCN(C(=O)CCN2C(=O)c3cccc4cccc(c34)C2=O)CC1,0.4
CC(=O)NC(c1ccccc1)c1nc2ccccc2[nH]1 (configuration not stated),-0.9
O=C(NC(=S)N1CCCCCC1)C1CC1,-1.0
Cc1ccc(-n2ncc3c2CC(C)(C)CC3NC(=O)CCc2ccncc2)cc1 (configuration not stated),-3.8
CCN(C(=O)c1cc2cc3ccc(C)cc3nc2o1)c1ccc(OC)cc1,-1.1
COc1ccc(SCCN2CCN(CC(C)C)CCC2=O)cc1,0.3
COc1ccc(C(=O)NCCc2nnc3ccc(SCC(=O)Nc4ccccc4F)nn23)cc1,-3.9
CN(CC#CC1(O)c2ccccc2-c2ccccc21)Cc1ccccc1,-0.3
COc1ccc(Nc2nc(C)cc(C)c2C#N)cc1,0.1
O=C(c1ccccc1)c1cc2c(cc1[N+](=O)[O-])OCCO2,-0.3
COc1cc(C)c(NC(=S)NCCCN2CCOCC2)cc1OC,-0.1
CCN(CC)S(=O)(=O)c1ccc(-c2nnc(SCC(C)=O)o2)cc1,0.1

# Going on with the list.
canonical_smiles,STK33 inh
Cc1nc(C(F)(F)F)ccc1C(=O)NN1CCOCC1,-0.8
CN(C)/C=C1\NC(=S)N(c2ccccc2)C1=O,-2.2
CCCN1CCC(=O)N(CCSc2ccc(OC)cc2)CC1,-0.5
Cc1cc(C)cc(NC(=O)Cn2c(=O)oc3cc(S(=O)(=O)N4CCC(C)CC4)ccc32)c1,-0.5
COc1ccccc1NC(=O)CSc1ccc(-c2cccs2)nn1,2.5
O=C(c1ccccc1Cl)N1CCN(S(=O)(=O)N2CCCCC2)CC1,1.0
CCn1cc(C(=O)OCC(=O)c2ccc(Cl)cc2)c(=O)c2ccc(C)nc21,0.9
CCCCS(=O)(=O)N1CN(S(=O)(=O)CCCC)C2NC(=O)NC21 (configuration not stated),-0.2
O=C1c2ccccc2C(=O)N1CC1CCCO1 (configuration not stated),-0.4
Cc1ccc(C)c(CN2C(=O)c3ccccc3S(=O)c3ccc(C(=O)NCCCN4CCCC4)cc32)c1 (configuration not stated),-1.2
Cc1csc(CN(C)C(=O)CC2C(=O)NCCN2Cc2ccc(-c3ccccc3)cc2)n1 (configuration not stated),-1.0
COc1ccc(CC(=O)OCN2C(=O)c3ccccc3C2=O)cc1OC,-0.8

# Next compounds.
canonical_smiles,STK33 inh
CCCc1[nH]nc2c1C(C1CCCCC1)C(C#N)=C(N)O2 (configuration not stated),-1.0
Cc1ccc(NC(=O)COC(=O)c2ccc3c(c2)NC(=O)C2CCCN32)cc1 (configuration not stated),0.1
Cc1noc(C)c1S(=O)(=O)N1CCC(Cc2ccccc2)CC1,-3.2
CCOC(=O)c1ccc(NC(=O)COc2ccc(CNCCO)cc2OCC)cc1,0.6
COc1ccc(C2=NOC(C)(c3nnc(Cc4ccccc4)o3)C2)cc1 (configuration not stated),-0.4
O=C(NC(=O)c1ccc(Cl)c(Cl)c1)OC1CCS(=O)(=O)C1 (configuration not stated),-1.2
CCn1c(O)c(/C=C/C=C/C=Nc2ccccc2)sc1=S,0.0
O=C(CN1CCN(S(=O)(=O)N2CCOCC2)CC1)Nc1cc(Cl)cc(Cl)c1,0.6
O=C(Cc1ccc([N+](=O)[O-])cc1)NCc1ccccn1,-2.1
Cc1cc(NC(=O)CSCC(=O)N(C)Cc2ccc(Cl)cc2Cl)no1,-2.4
CCCCCN(C(=O)CCC(=O)OCCOc1ccc(OCC)cc1)c1c(N)n(CCCC)c(=O)[nH]c1=O,0.4
COc1ccccc1S(=O)(=O)Nc1cc(C)nn1-c1ccc(C)cc1,-0.7

# Going on with the list.
canonical_smiles,STK33 inh
Cn1c(=O)cc(Nc2ccccc2)[nH]c1=O,-0.3
COc1ccc(CNC(=O)Nc2cccs2)cc1OC,2.5
COc1ccc(S(=O)(=O)N2CCC(C(=O)NCc3ccncc3)CC2)cc1C,0.0
O=C(CCn1c(=O)c2ccccc2n(CC(=O)NC2CCCC2)c1=O)NCc1ccco1,1.1
O=C(Nc1nc2ccc(Cl)cc2s1)[C@@H]1CCCN1C(=O)c1cccs1,0.0
CC(C)CC(C(=O)NC(=O)NCc1ccccc1)N1C(=O)c2ccccc2C1=O (configuration not stated),-1.2
Cc1cccc(N2CC(C(=O)Nc3nnc(SCCN4CCOCC4)s3)CC2=O)c1 (configuration not stated),-1.0
CCN(CC)C(=O)N1CCN(C)CC1,0.3
Cc1ccc(C)c(N(C(=O)c2csnn2)C(C(=O)NC2CCCCC2)c2ccccn2)c1 (configuration not stated),0.7
CCOC(=O)c1csc(N)n1,-1.0
O=C(Cc1ccccc1)N/N=C/c1ccccn1,-1.0
Cc1nc2ccccn2c(=O)c1NC(=O)c1cccs1,-1.5

# New compounds follow:
canonical_smiles,STK33 inh
Cc1ccc2c(CC(=O)NNC(=O)c3ccccc3O)coc2c1,-3.2
COc1ccc(C(=O)NCC(=O)NCc2cc(=O)n(C)c(=O)n2C)cc1,3.0
O=C(Nc1ccc(OC(F)F)cc1)c1cc[n+]([O-])cc1,0.5
Cc1cnc(NC(=O)C2=C(O)c3ccccc3S(=O)(=O)N2C)s1,-0.8&-0.9&-2.6&-1.5
C=CCNC(=O)c1cn(CC)c2cc(N3CCN(C(=O)c4ccco4)CC3)c(F)cc2c1=O,2.2
CCCCn1c(N)c(N(CC(C)C)C(=O)C2CCN(S(=O)(=O)c3ccccc3)CC2)c(=O)[nH]c1=O,-0.3
COc1ccc(NC(=O)CN(C)C2CCCCC2)c([N+](=O)[O-])c1,-1.2
O=C(O)c1ccc(/C=N/NC(=O)c2ccc(F)cc2)cc1,-1.6
COc1ccc(NC(=O)CCN2CCN(S(=O)(=O)c3ccc(Br)cc3)CC2)cc1,-2.2
Cc1ccc2sc(N(CCCN(C)C)C(=O)CN3C(=O)c4ccccc4C3=O)nc2c1C,0.2
CCCC(=O)Nc1cc(Cl)ccc1N1CCN(C(=O)CC)CC1,0.3
COCCn1c(-c2ccccc2)nc(=S)c2c1CC(C)(C)OC2,-1.2

# Other results:
canonical_smiles,STK33 inh
CN=C(NC#N)NCCSCc1nc[nH]c1C,-1.7
Cc1oc2cc(O)cc(O)c2c(=O)c1-c1ccc2c(c1)OCCCO2,-0.4
Cc1ccc(Nc2nc(C)cc(C)c2C(N)=O)cc1,0.6
O=C(CN1CCC(C(=O)c2ccc(F)cc2)CC1)Nc1ccccc1Cl,-0.3
Cc1nc(SCC(=O)N2CCC(Cc3ccccc3)CC2)[nH]c(=O)c1C,-0.4
CCCNC(=O)N1CCN(C(c2ccccc2)c2ccccc2)CC1,0.1
CCOC(=O)c1cccc(NC(=O)CCc2c(C)nc3ncnn3c2C)c1,-0.1
O=C(NCc1cccc(C(F)(F)F)c1)c1ccc2c(c1)OCCO2,-3.0
C/C(=N\NC(=O)CSCc1ccc([N+](=O)[O-])cc1)c1ccccc1,-1.4
Cc1nc(CC(=O)Nc2nc(C(C)(C)C)cs2)cs1,-2.1
Cc1ccc(C)c(Nc2ccc(C(=O)NCCc3ccccc3)cn2)c1,-0.7
N#Cc1ccc(NC(=O)c2cc(=O)c3ccccc3o2)cc1,0.5

# Later entries.
canonical_smiles,STK33 inh
Cc1sc(C(=O)NCc2cccnc2)c2nc(C)n(CC(=O)NCc3cccnc3)c(=O)c12,0.2
CCCCOc1ccc(CSC(CC(=O)O)C(=O)O)cc1 (configuration not stated),-0.9
Cc1cccc(NC(=O)N2CCC(NC(=O)c3ccco3)CC2)c1,-2.0
COC(=O)[C@]1(Cc2ccccc2)N[C@H](c2ccc(-c3ccc(OC)cc3)cc2)[C@@H]2C(=O)N(C)C(=O)[C@@H]21,-1.6
O=C1c2ccccc2C(Nc2ccc3c(c2)OCCO3)N1c1ccccn1 (configuration not stated),-0.7
CC1=CC(C)(C)N(S(=O)(=O)c2ccc(C)cc2)c2ccccc21,0.0
COc1ccc(CN(C)C(=O)Cc2ccc(OC)c(S(=O)(=O)N3CCOCC3)c2)cc1,0.0
CC(=O)N1CCCc2cc(S(=O)(=O)N3CCc4ccccc4C3)ccc21,-0.6
CS(=O)(=O)N1CCCC(C(=O)NCCN2CCC(Cc3ccccc3)CC2)C1 (configuration not stated),0.7
CN(C)Cc1ccc(F)cc1Sc1cc(Cl)ccc1Cl,-0.2
Cc1ccc(N(CC(=O)Nc2ccccc2C(=O)N2CCOCC2)S(C)(=O)=O)cc1,-5.1
CCS(=O)(=O)Nc1ccc(C2=NN(S(C)(=O)=O)C(c3cccs3)C2)cc1 (configuration not stated),-0.4

# The list goes on.
canonical_smiles,STK33 inh
CC(C)C(=O)Nc1sc2c(c1-c1nc3ccccc3[nH]1)CCCC2,-0.1
COC(=O)[C@]1(CC(C)C)N[C@H](c2ccc(-c3ccc(Cl)c(Cl)c3)cc2)[C@@H]2C(=O)N(C)C(=O)[C@@H]21,0.9
O=C(Nc1cccc(C(=O)O)c1)/C(=C/c1ccc([N+](=O)[O-])cc1)NC(=O)c1ccccc1,-2.8
NC(=O)c1cc2ccccc2o/c1=N\NC(=O)c1ccccc1O,0.2
COc1ccc(CCNc2c(C=O)c(=O)[nH]c3ccccc23)cc1OC,-1.0
O=C(CCc1nnc(Cc2ccc3c(c2)OCO3)o1)NC(c1ccccn1)C(F)(F)F (configuration not stated),-1.4
CCCOC(=O)COC(=O)c1ccccc1NC(=O)c1ccccc1,0.2
Cc1ccc(-n2nnnc2-c2ccccc2)cc1,-1.3
NC(=O)c1cc(S(=O)(=O)NCc2cccc(Br)c2)cs1,0.3
COc1cc(OC)cc(C(=O)Nc2ccc(NC(=O)c3ccco3)c(C)c2)c1,4.0
Cc1cccn2c(=O)c3cc(C#N)c(=O)n(CCCN4CCOCC4)c3nc12,1.3

# Screening results: PubChem, Broad Institute

# Not all compounds are listed, and most or all hits are left out here.
